TDP1 inh: TDP1 (human) enzyme inhibition; 350,000 compounds, 0.28% hits; recombinant TDP1, AlphaScreen DNA substrate cleavage; Potency, µM (top dose mostly 130 µM), for the others: top-dose activity change, negative = inhibition, hits mostly inhibitors; AID 485290; Q9NUW8; further: nearly all actives have a fitted effect of over 40% in size
Target sequence (Q9NUW8 whole entry, looked up): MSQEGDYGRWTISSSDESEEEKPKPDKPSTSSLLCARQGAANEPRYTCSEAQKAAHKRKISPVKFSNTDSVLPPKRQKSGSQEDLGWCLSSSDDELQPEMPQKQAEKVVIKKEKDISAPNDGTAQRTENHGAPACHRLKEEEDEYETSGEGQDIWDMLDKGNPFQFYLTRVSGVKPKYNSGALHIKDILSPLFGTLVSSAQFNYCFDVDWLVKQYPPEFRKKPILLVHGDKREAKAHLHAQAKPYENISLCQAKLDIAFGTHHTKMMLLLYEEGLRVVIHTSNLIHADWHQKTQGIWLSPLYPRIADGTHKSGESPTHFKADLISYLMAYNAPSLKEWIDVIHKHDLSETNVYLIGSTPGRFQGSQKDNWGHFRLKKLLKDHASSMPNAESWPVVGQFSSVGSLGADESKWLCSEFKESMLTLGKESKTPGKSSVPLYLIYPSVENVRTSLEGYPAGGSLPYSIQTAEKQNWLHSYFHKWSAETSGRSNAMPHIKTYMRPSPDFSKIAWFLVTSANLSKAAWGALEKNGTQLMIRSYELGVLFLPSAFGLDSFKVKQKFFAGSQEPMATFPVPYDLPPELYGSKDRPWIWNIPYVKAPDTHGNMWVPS
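Steps: enzyme plus compound, 15 min RT; add biotin/phosphotyrosine-FITC oligonucleotide (15 nM final), react 5 min; add donor/acceptor beads (10 ug/ml final), 10 min; read AlphaScreen. Tdp1 at 1 nM final.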
N370S GC mod: N370S glucocerebrosidase modulation, Gaucher chaperone candidate | P04062 | N370S GC spleen homogenate, 4MU-glucoside fluorescence | Potency, µM (series often up to 59.4 µM), for inactives: top-dose activity change, negative = inhibition, hits mostly inhibitors | 330,000 compounds, 0.092% hits | AID 2101;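 further: 0% = full enzyme activity and -100% = no enzyme basal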
Numbers without * were called inactive; ? = inconclusive; · = no result given; [ ] = another dose, or the depositor's remark. The call rests on the fitted dose curve; in most records, active means well fitted curve in the direction sought with a large enough effect; inconclusive means small, poorly fitted or top-dose-only effect, or another doubt; inactive means no such curve, though single readings can be large; an effect the other way counts as inactive or inconclusive. Unless noted, on the % scale 0 is the no-effect control and ±100 the full control effect; potency means the concentration at half of the fitted maximal effect. An excerpt, and most or all hits are left out here.

Under each structure – TDP1 inh | N370S GC mod
O=C1CC(c2nc3ccccc3[nH]2)CN1Cc1ccccc1 (stereo unspecified)
 : 5% | 1%
CCn1c(SCC(=O)NCc2ccccc2)nnc1-c1ccccc1O
 : 7% | 7%
CCOC(=O)CNC(=O)c1ccc2[nH]c3c(c2c1)CCCC3
 : -4% | 1%
CS/C(=N\N(C)C(N)=O)c1ccccc1
 : -2% | 13%
CCOc1ccc2nc(NC(=O)CSc3nc4ccccc4c(=O)n3Cc3ccco3)sc2c1
 : 7% | 4%
CCOC(=O)C1CCCN(S(=O)(=O)c2ccc3c4c2CC(=O)N4CC(C)S3)C1 (stereo unspecified)
 : · | 1%
COC(=O)/C(=C/c1cn(C(C)=O)c2ccccc12)[N+](=O)[O-]
 : · | -2%
COCCCNS(=O)(=O)c1cc2c3c(c1)C(C)C(=O)N3CCC2 (stereo unspecified)
 : -2% | -20%
Cc1ccccc1NC(=O)C1CCC(=O)N1 (stereo unspecified)
 : · | -3%
O=C1CN(C(=O)COc2ccc(Br)cc2Br)c2ccccc2N1
 : 0% | 1%
Cc1ccc2occ(/C=N/NC(N)=S)c(=O)c2c1
 : 3% | 3%
C/C(=N\NC(=O)c1n[nH]c2c1CCC2)c1cccs1
 : -2% | 4%
CC(C)c1ccc(NC(=O)COC(=O)CSc2nnc(N)s2)cc1
 : 1% | 8%
COc1cccc(CN2CCNC(=O)C2CC(=O)NC2Cc3ccccc3C2)c1 (stereo unspecified)
 : 2% | 0%
COc1cccc(N2CC(C(=O)Nc3ccc(C(=O)OC(C)C)cc3)CC2=O)c1 (stereo unspecified)
 : 4% | -13%
COc1ccc(NC(=O)CSc2nnc(-c3cccnc3)o2)c(OC)c1
 : · | 1%
CCNC(=S)N/N=C/c1cccs1
 : 2% | 8%
CC1CCN(S(=O)(=O)c2cn(CC(=O)N3CC(C)CC(C)C3)c(=O)c3ccccc23)CC1 (stereo unspecified)
 : 3% | 7%
CCOC(=O)c1ccc(NC(=O)c2ccc3c(c2)C(=O)N(CC2CCCO2)C3=O)cc1 (stereo unspecified)
 : 2% | -1%
CSc1ncccc1C(=O)OCc1c(F)cccc1Cl
 : · | 2%
Cc1c(C(=O)OCC(=O)Nc2ccc(C(=O)N(C)C)cc2)oc2ccccc12
 : 1% | -8%
CC1CN(C2CCN(C(=O)COc3ccccc3)CC2)CC(C)O1 (stereo unspecified)
 : ? | -5%
CC(=O)NCC(=O)OC(C)C(=O)Nc1ccc(C(C)=O)cc1 (stereo unspecified)
 : 5% | 1%
Cc1ccccc1COc1ccc(-c2nn[nH]n2)cc1
 : · | -8%
CCc1ccccc1NC(=O)CCNS(=O)(=O)c1cc(Br)cnc1N
 : 2% | -12%
Cc1ccc(S(=O)(=O)c2nnn3c2nc(N2CCCC2)c2sccc23)cc1
 : -3% | ·
CC(C)(C)NC(=O)Cc1ccc(Cl)c(Cl)c1
 : 5% | 4%
O=C(NCC(=O)N1CCOCC1)c1ccc(Br)o1
 : -1% | -7%
Cc1noc(C)c1CCC(=O)N1CCCC(CO)(Cc2ccccc2)C1 (stereo unspecified)
 : 3% | 1%
O=C(COc1ccc(Cl)cc1)NCCCNC(=O)c1cccnc1
 : 0%[0.0935 µM] | -3%
O=C(C1CC(=O)N(c2ccc3c(c2)OCCO3)C1)N1CCN(c2cccc(C(F)(F)F)c2)CC1 (stereo unspecified)
 : 1% | -12%
O=C(CCNC(=O)c1ccc(Cl)cc1)Nc1ncccc1O
 : -16% | -1%
Cc1ccc(-c2nnn(CC(=O)N(CC(=O)NC(C)C)c3cnc4ccccc4c3)n2)o1
 : 6% | -8%
CCN1N=C(c2ccccc2)CCC1=O
 : · | -10%
C=CCn1c(=NC(=O)c2ccc(S(=O)(=O)N3CCCc4ccccc43)cc2)sc2cc(S(N)(=O)=O)ccc21
 : -3% | ?
CC(=O)Nc1nnc(SCC(=O)N2CCc3ccccc32)s1
 : -2%[0.0935 µM] | -3%
CS(=O)(=O)N(CCC(=O)O)Cc1ccccc1
 : 4% | 3%
O=C(CSc1nc2c([nH]c3ccccc32)c(=O)n1-c1ccc(F)cc1)N1CCCCC1
 : 2% | ·
C=CCSc1nccc(-c2nn(-c3ccc(C)cc3)ccc2=O)n1
 : 3% | 17%
COCCn1c(SCC(=O)Nc2cc(C)on2)nnc1-c1ccccc1
 : · | -8%

Random excerpt: 6 entries already listed
Under each structure – TDP1 inh | N370S GC mod
CS(=O)(=O)N(CCC(=O)O)Cc1ccccc1
 : 4% | 3%
CC(=O)Nc1nnc(SCC(=O)N2CCc3ccccc32)s1
 : -2%[0.0935 µM] | -3%
Cc1ccc(S(=O)(=O)c2nnn3c2nc(N2CCCC2)c2sccc23)cc1
 : -3% | ·
CCOC(=O)CNC(=O)c1ccc2[nH]c3c(c2c1)CCCC3
 : -4% | 1%
O=C(CCNC(=O)c1ccc(Cl)cc1)Nc1ncccc1O
 : -16% | -1%
O=C(NCC(=O)N1CCOCC1)c1ccc(Br)o1
 : -1% | -7%

Structures shown so far that contain bromine, in the order listed:
Under each structure – TDP1 inh | N370S GC mod
O=C1CN(C(=O)COc2ccc(Br)cc2Br)c2ccccc2N1
 : 0% | 1%
CCc1ccccc1NC(=O)CCNS(=O)(=O)c1cc(Br)cnc1N
 : 2% | -12%
O=C(NCC(=O)N1CCOCC1)c1ccc(Br)o1
 : -1% | -7%

Next section.
Under each structure – TDP1 inh | N370S GC mod
CC1=C(C(=O)OCC2CCCO2)C(c2ccsc2)C2=C(CCCC2=O)N1 (stereo unspecified)
 : 3% | 1%
CC1Sc2ccc(C(=O)N3CCCC(C(F)(F)F)C3)cc2NC1=O (stereo unspecified)
 : 1%[0.505 µM] | -2%
CC(=O)c1cccc(NC(=O)c2c(C)nn(-c3ccccc3)c2Cl)c1
 : 5% | -6%
O=C(NCC1CCCCC1)C1(CC2CC(c3cccc(Br)c3)=NO2)CCNCC1 (stereo unspecified)
 : · | ?
CCCSc1nnc(C(C)C)n1N
 : 4% | 8%
NCCNC[C@@H]1COC2(CCCCCCCCCCC2)O1
 : 1% | -18%
CCN(CC(=O)Nc1ccc(NC(C)=O)cc1)C(=O)c1ccc2c(c1)S(=O)(=O)N=C1CCCCCN12
 : · | -6%
O=c1[nH]c(C2CCN(S(=O)(=O)c3ccccc3)CC2)nc2c1nnn2Cc1ccccc1
 : · | -2%
CC(=O)N1CCN(C(=O)CNC(=O)c2cccs2)CC1
 : 1%[56.1 µM] | ·
CC(O)(c1ccccc1)C(c1ccccc1)C1CCCCN1 (stereo unspecified)
 : 1% | 1%
O=S(=O)(c1ccccc1Cl)N1CCCC1c1nc(-c2ccc(Cl)cc2)no1 (stereo unspecified)
 : 3% | 9%
COc1ccc(N(CC(=O)N2CCCCCC2)S(=O)(=O)c2ccc(OC)c(OC)c2)cc1
 : 10% | -9%
O=C(CCCOc1ccc(Cl)cc1Cl)N/N=C\C1CCCCC1
 : 3% | -10%
CCN(CC)c1ccc(CN2CCC(C(=O)NCc3ccc(C)cc3)CC2)cc1
 : -3% | 1%
O=C(NCCC1=CCCCC1)c1coc(=O)c(Br)c1
 : 5% | 8%
Cn1cc(S(=O)(=O)Nc2ccc(F)c(Cl)c2)c(=O)n(C)c1=O
 : · | -5%
CN(C)S(=O)(=O)c1cccc(NC(=S)N2CCc3ccccc32)c1
 : 8% | -4%
Cc1ccc(S(=O)(=O)Nc2ccncc2)c(C)c1
 : · | 0%
C=CCOc1ccc(C2c3c(oc4ccccc4c3=O)C(=O)N2CCCN2CCOCC2)cc1 (stereo unspecified)
 : 6% | -4%
CCC1CCCCN1C(=O)N[C@@H](CCSC)C(=O)OC (stereo partly specified)
 : 0% | -25%
COc1cccc(NC(=O)Cn2cnc3c(nc4n3CCCCC4)c2=O)c1
 : 2% | ·
O=C(CCCc1ccccc1)Nc1nnc(C(F)(F)F)s1
 : -2% | 6%
O=C(CCS(=O)(=O)c1ccccc1)Nc1ccc(-c2nc3ccccc3s2)cc1
 : -1% | 0%
CCOC(=O)N1CCN(C(=O)CSCC(=O)Nc2nc(-c3ccccc3)cs2)CC1
 : 3% | -4%
NC(=O)c1ccsc1NC(=O)c1ccco1
 : 5% | -8%
CCC(c1nnnn1C1CCCC1)N1CCN(C(=O)c2ccco2)CC1 (stereo unspecified)
 : ? | 6%
Clc1ccc(Sc2cnc3ccccc3n2)cc1
 : -6% | 9%
COc1ccc(S(=O)(=O)NCC2CCC(C(=O)NCc3ccco3)CC2)cc1 (stereo unspecified)
 : 3% | -5%
CCOc1ccc(NC(=O)CN2C(=O)C(c3ccc(Cl)cc3)=NC2(C)C)cc1
 : 0% | ·
Cc1ccc(OCC(=O)NNC(=S)NCc2ccccc2)cc1
 : 0% | 7%
Cc1nc(-c2ccccc2O)n(S(=O)(=O)N(C)C)n1
 : 0% | 5%
CCCCc1[nH]c(=O)c(C#N)c2c1CSC(C)(C)C2
 : 5% | -2%
Oc1ccccc1-c1csc(-c2ccccc2)n1
 : -5% | 6%
O=C(COC(=O)c1ccc(Br)cc1)Nc1ccccc1Br
 : -2% | -2%
CCOc1ccc(NC(=O)N(C2CCCC2)C2CCN(C(C)=O)CC2)cc1
 : 3% | -5%
O=S(=O)(c1ccc2c(c1)OCCO2)N1CCN(c2nc3ccccc3s2)CC1
 : 3% | 4%
O=C(Nc1ccccc1)Nc1cc(S(=O)(=O)N2CCOCC2)ccc1N1CCCC1
 : 7% | 11%
COc1ccccc1C/C(N)=N/OC(=O)COc1cc(C)cc(C)c1C
 : -7% | 13%
Cn1ccc(NC(=O)Nc2cccc([N+](=O)[O-])c2)n1
 : 4% | 11%
Cc1nc(C(=O)NNC(=O)Nc2ccc(Cl)cc2)cs1
 : · | 1%

Some values from the results shown:
Entry for O=C(CCCc1ccccc1)Nc1nnc(C(F)(F)F)s1 under TDP1 inh: -2%
Entry for Cc1nc(C(=O)NNC(=O)Nc2ccc(Cl)cc2)cs1 under N370S GC mod: 1%

The results go on.
Under each structure – TDP1 inh | N370S GC mod
O=C(Nc1ccc2oc(-c3ccccc3)nc2c1)c1ccco1
 : 1% | 5%
O=C(COC(=O)c1ccc(S(=O)(=O)N2CCOCC2)cc1)NC1CCCC1
 : -2% | 19%
COc1ccc(S(=O)(=O)N(C)CC(=O)Nc2ccc(C(F)(F)F)cc2)cc1Cl
 : 1% | 2%[12.8 µM]
CC(=O)C1=C(c2ccccc2)NC(=O)NC1c1ccc2c(c1)OCO2 (stereo unspecified)
 : · | -5%
O=C(Nc1cccc(Cl)c1)c1ccc(-n2cncn2)c([N+](=O)[O-])c1
 : 1% | -10%
COc1ccc(Nc2nc3ccccc3c(=O)[nH]2)cc1
 : -1% | -5%
COc1ccccc1NC(=O)COC(=O)c1ccc2c(c1)nc(C)n2-c1ccccc1
 : 3% | 7%
Cc1cccc(OCC(=O)N/N=C\c2cccn2C)c1C
 : 6% | -10%
O=C(C1CCN(S(=O)(=O)c2ccc(F)cc2)CC1)N1CC=C(c2ccccc2)CC1
 : 3% | 0%
COc1ccc(N2CCN(C(=O)Nc3ccc(S(=O)(=O)N(C)C)cc3)CC2)cc1
 : 6% | 0%
O=C(NC1CCCN(Cc2ccc(Cl)cc2)C1)c1c(F)cccc1F (stereo unspecified)
 : 2% | 3%
CN(C)c1nc(N)ncc1-c1ccc(Oc2ccccc2)cc1
 : · | -1%
Cc1cc(C)n2nc(C(=O)Nc3ccc(N4CCOCC4)cc3)nc2n1
 : 6% | 5%
Cc1ccc(NC(=O)Cn2cc(C(=O)C3CC3)c3ccccc32)cc1C
 : 1% | ·
CCC1C(=O)Nc2ccccc2N1C(=O)c1ccc(Cl)nc1 (stereo unspecified)
 : -10% | 8%
O=C(CCn1c(=O)oc2ccccc21)NCc1ccco1
 : · | 0%
O=C(CCOc1ccc(F)cc1)Nc1nccs1
 : 0% | 1%
O=C(Cc1cccs1)N(CC1CCCO1)C1(C(=O)NC2CCCCC2)CCCCC1 (stereo unspecified)
 : 3% | 9%
O=C(CC1N=C(Cc2ccccc2)NNC1=O)N/N=C/c1ccc([N+](=O)[O-])cc1 (stereo unspecified)
 : -5% | 1%
COc1ccc2c(c1)SCC/C2=C\CN1C(=O)CCC1=O
 : 3% | 22%
O=C(Oc1ccc2c(c1)C(=O)c1ccccc1CO2)c1ccccc1
 : -2% | 4%
COc1cc(NC(=O)CCCC(=O)OCC(F)(F)C(F)F)nc(OC)n1
 : -2% | 2%
c1ccc2c(c1)[nH]c1c3ccccc3sc21
 : 3% | 7%
C=CCN1N=C(c2ccc(Cl)s2)CSC1=O
 : 3% | -6%
Cc1c(C(=O)N2CCCCC2)c(S(=O)(=O)N2CCN(c3ccc(Cl)cc3)CC2)c(C)n1C
 : 8% | 8%
O=C(O)c1ccc(Cl)c(S(=O)(=O)NC(Cc2c[nH]c3ccccc23)C(=O)O)c1 (stereo unspecified)
 : · | 3%
Cn1nnnc1Sc1ncnc2scc(-c3cccc4ccccc34)c12
 : -2% | ·
Cn1ncc(Br)c1C(=O)N1CCc2ccccc21
 : 4% | -1%
CC(C)(C)NC(=O)C12CC3CC(CC(Cl)(C3)C1)C2
 : -3% | 2%
CCOc1ccc(Cc2nnc(SCC(=O)Nc3ccccc3)n(N)c2=O)cc1
 : -5%[0.505 µM] | 2%
Cc1cccc(C)c1OCc1cc(C(=O)N(C)Cc2cc(C3CC3)n[nH]2)no1
 : 3% | -6%
CC(NC(=O)OCc1ccccc1)C(=O)NCC1CCCO1 (stereo unspecified)
 : 4% | -13%

Screening results as filed in PubChem.
